# Rce1 inhib: inhibitors of yeast Ras-converting enzyme; Q03530; yeast membranes, quenched prenylated peptide cleavage fluorescence; calls only; 290,000 tested, 0.27% active; AID 2563;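 active = fall in fluorescence gain of 50% or more versus controls, with final raw signal at or below 3038400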;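 also: plate controls were neutral control wells for no effect and wells lacking membranes for full effect; tested at 10 µM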
# Target sequence (Q03530 whole entry, looked up): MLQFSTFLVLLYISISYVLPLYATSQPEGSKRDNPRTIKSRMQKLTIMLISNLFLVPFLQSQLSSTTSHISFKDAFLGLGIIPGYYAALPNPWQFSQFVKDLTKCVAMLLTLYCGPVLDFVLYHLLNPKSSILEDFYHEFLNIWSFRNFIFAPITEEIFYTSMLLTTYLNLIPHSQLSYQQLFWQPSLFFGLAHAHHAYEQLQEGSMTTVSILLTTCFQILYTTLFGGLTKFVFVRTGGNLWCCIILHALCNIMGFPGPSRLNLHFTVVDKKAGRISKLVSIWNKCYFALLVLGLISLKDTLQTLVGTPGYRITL
# PABP polyA inh: PABP-poly(A) binding inhibition; P11940; PABP-poly(A) RNA binding, fluorescence polarization; inhibition, % at 35 µM; 290,000 tested, 1% active; AID 2014;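 active = 50% or more with normal probe brightness, or confirmed in later tests; about a fifth of its hits are not listed in these tables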;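 also: calls also rest on retests at 20 µM and on dose response follow-up; controls were probe without protein and protein plus probe with vehicle; some compounds called inactive have numbers as strong as hits; many hits fall short of the cut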
# eIF4H FP inh: inhibitors of RNA binding by human eIF4H; 290,000 tested, 0.94% active; inhibition, % at 35 µM; eIF4H fluorescence polarization binding assay; Q15056;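 active = 50% or more with normal probe brightness, or confirmed in later tests; about a fifth of its hits are not listed in these tables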;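 also: calls also rest on retests at 20 µM and on dose response follow-up; 0% = protein and probe with vehicle and 100% = probe without protein; strong numbers were not always called active; many hits fall short of the cut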
# MT1-MMP act inh: MT1-MMP (human) activation inhibition; P50281; HT1080 RFP-PRO-GFP cells, GFP/RFP ratio fluorescence, overnight; percent of plate control window, DMSO zero; GFP/RFP ratio change, % at 20 µM; 360,000 tested, 0.061% active;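 active = GFP/RFP ratio change of at least 30% with cell ATP level not reduced by more than half and red fluorescence within 50% of control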; also: strong numbers were not always called active
#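 Read-out: GFP/RFP fluorescence ratio; Test system: RFP-PRO-GFP reporter HT1080 cells; Compound dosing: single-point 20 µM compound, 1% DMSO; Times: overnight compound exposure at 37 °C.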
# Yeast UUG start: modulators of start codon recognition fidelity in yeast | AID 602363 | activity score, % at 18.7 µM | S. cerevisiae UUG-firefly luciferase reporter, luminescence/redox ratio | 350,000 tested, 0.13% active;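 active = replicate mean at a twofold rise or more, about +100% in these data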;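 also: firefly luciferase made from a UUG start codon reports start codon fidelity; reporter light over untreated wells divided by growth signal over untreated wells; some hits fall short of that in this replicate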
# CSC inhib: blocks cancer stem cells. cancer stem cell-like cells viability, luminescence. inhibition, % at 7.5 µM. 300,000 tested, 1.1% active. AID 2717;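 active = mean at 75% or more and at least half the replicates too; tested in HMLE shEcad cells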;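 also: 0% = median of negative and 100% = median of positive control wells; the first replicate is given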
# HIV Env fusion: inhibitors of HIV Env-mediated cell fusion | HeLa-JRFL Env/CEM21 cell fusion, luciferase | inhibition, % at 12.3 µM | 360,000 tested, 1.1% active | AID 651610;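 active = mean replicate inhibition score of at least 50 and every replicate individually at or above 50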;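 also: 0% = plate neutral controls and 100% = maraviroc near 300 nM; one replicate is shown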
# eIF4H FP inh retest: also measured in eIF4H FP inh; calls as there; inhibition, %; compound at 20 µM; confirmation average;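 mean of two retest wells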
# PABP polyA inh retest: second read-out of PABP polyA inh, no call of its own (marks repeat the call); inhibition, %; compound at 20 µM; confirmation repeats;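 mean of two retest wells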
# MT1-MMP act inh RFP: recorded beside MT1-MMP act inh, whose call it bears; RFP signal change, %; measured here: RFP expression control read;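 0 = vehicle wells; hits needed this value within 50% of zero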
# The depositor's hits bear a star; i = inactive; / = not tested or not shown; & = joins results of further samples; [ ] = remark or other dose.
SMILES,Rce1 inhib,PABP polyA inh,eIF4H FP inh,MT1-MMP act inh,MT1-MMP act inh RFP,Yeast UUG start,CSC inhib,HIV Env fusion,others
Cc1cc(Oc2ccc(=O)n(C)n2)nc(Oc2ccc(=O)n(C)n2)n1,i,10,-1,1,4,-32,-14,/,
CN1CCN(S(=O)(=O)c2ccc(C#N)cc2)C(c2ccccc2)C1 (configuration not stated),/,/,/,0,1,-13,8,/,
COc1ccc(/C=C2\CN(Cc3ccccc3)C/C(=C\c3ccc(OC)cc3OC)C2=O)c(OC)c1,i,7,-3,-24,-9,0,13,10,
Cc1nn2c(-c3ccc(Cl)cc3Cl)nnc2s1,i,4,0,0,4,-50,8,/,
Cc1ccc(CS(=O)Cc2ccc(C(=O)NCc3cccs3)o2)cc1 (configuration not stated),i,-2,-4,4,2,6,-6,-3,
CC(C)c1nnc(SCC(=O)N2CCc3ccccc32)n1C,i,-1,-3,-1,-1,-16,/,-25,
Cc1ccccc1OCCC(=O)Nc1c(C)n(C)n(-c2ccccc2)c1=O,i,/,/,2,-2,-5,6,-60,
COc1cccc(CC2(CO)CCN(Cc3ccc(NC(C)=O)cc3)CC2)c1,i,-1,-6,-5,0,/,-4,8,
O=C(Cn1cc(/C=N/NC(=O)c2cccc3ccccc23)c2ccccc21)Nc1ccc(F)cc1,i,7,1,-15,-11,-7,5,14,
COc1ccc(S(=O)(=O)N(C)C[C@@H]2OCc3cn(nn3)CCCC(=O)N([C@H](C)CO)C[C@H]2C)cc1,/,/,/,5,7,-2&-9,/,5[16.7 µM],

# Reprinted from the part before: two compounds, followed by the next part.
SMILES,Rce1 inhib,PABP polyA inh,eIF4H FP inh,MT1-MMP act inh,MT1-MMP act inh RFP,Yeast UUG start,CSC inhib,HIV Env fusion,others
O=C(Cn1cc(/C=N/NC(=O)c2cccc3ccccc23)c2ccccc21)Nc1ccc(F)cc1,i,7,1,-15,-11,-7,5,14,
COc1ccc(S(=O)(=O)N(C)C[C@@H]2OCc3cn(nn3)CCCC(=O)N([C@H](C)CO)C[C@H]2C)cc1,/,/,/,5,7,-2&-9,/,5[16.7 µM],
O=C(C[C@H]1C(=O)N(Cc2ccccc2)C[C@@H]1Cc1ccccc1)Nc1ccc(Br)cc1,/,/,/,0,-6,-18,/,-2,
CCn1cc(S(=O)(=O)CC(=O)Nc2ccc(OC)cc2)c2ccccc21,i,-15,-2,4,2,4,-8,21,
C=CCN1C(=O)C2C(C(=O)NCc3ccccc3)C3C=CC2(O3)C1C(=O)NC(C)(C)C (configuration not stated),i,2,6,10,7,533*,-1,-105,
C=CC[C@@H](CC(=O)NCCO)C(=O)NC[C@H](OC(=O)[C@@H](CC=C)Cc1ccc(F)cc1)c1ccccc1,/,/,/,-7,1,16,-3,4,
CCOC(=O)C1CCN(C(=O)c2ccc(NS(=O)(=O)c3ccc(F)cc3C)cc2)CC1,i,0,-3,1,2,23,-15,-4,
CC1(C(=O)NS(=O)(=O)c2ccc(C#N)cc2)CCN1C(=O)Cc1ccccc1Cl (configuration not stated),/,/,/,1,-2,13,/,11,
CCOC(=O)c1nnsc1NC(=O)Nc1ccc(OC)cc1,i,-6,-4,1,4,-29,-8,6,
CS(=O)(=O)N1CCCC(C(=O)NCc2ccccc2Cl)C1 (configuration not stated),i,4,-2,1,1,0,-4,5,
COc1cccc(/C=N/NC(=S)NC2CC3CC2C2C=CCC32)c1O (configuration not stated),i,-1,5,4,0,-14,0,21,
CC(=O)N1c2ccccc2Sc2ccccc21,i,2,0,7,4,-1,5,-22,
O=C(CN1CCCC1)Nc1ccc(Cl)cc1C(F)(F)F,i,-2,-10,0,5,/,-8,11,
O=C(c1cccs1)N1CCCC(c2nc(-c3ccc(F)cc3)no2)C1 (configuration not stated),i,-10,6,2,-2,-9,-7,/,
CCOC(=O)C1CCCCN1C(=O)CCc1c(C)nc2ncnn2c1C (configuration not stated),i,6,-2,5,3,-19,-9,-149,
O=C(Nc1c2c(nn1-c1ccc(F)cc1)CS(=O)(=O)C2)c1ccc2c(c1)OCO2,i,-5,11,2,5,-15,4,-9,
CCC(=O)Nc1nc(NCc2ccccc2OC)n(-c2ccccc2)n1,i,4,-7,0,2,/,-16,11,
Cc1cc(C)cc(Nc2cc(C)nc3ncnn23)c1,/,/,/,1,3,-21,/,-38,
COC(=O)c1ccccc1NC(=O)c1ccc(COc2ccccc2)o1,/,-4,-12,-5,-1,-18,19,-89,
Cc1cccc(NC(=O)CSc2nc(C)nc3c2c(=O)n(C)c(=O)n3C)c1,/,-1,7,2,4,-18,/,14,
CC(C)C(C)(C#N)NC(=O)CSc1nnc(-c2ccccc2)o1 (configuration not stated),i,-5,6,3,0,11,-11,/,
Cc1c(N=C2SCC(=O)N2/N=C/c2ccccc2)c(=O)n(-c2ccccc2)n1C,i,0,-2,-3,-3,/,/,-14,
OC(CN1C2=NCCN2c2ccccc21)c1ccc(Br)cc1 (configuration not stated),i,1,-8,0,3,-14,17,/,
CC(C)(C)NC(=O)CCN(/N=C/c1ccc([N+](=O)[O-])o1)C1=NS(=O)(=O)c2ccccc21,/,-6,82*,-10,1,-2,-5,-32,eIF4H FP inh retest=84*;PABP polyA inh retest=32
COc1ccc(-c2cc(C(F)(F)F)nc(N3CCN(c4ccc(F)cc4)CC3)n2)cc1OC,i,-6,-13,6,6,-4,/,-7,
O=C(Nc1ncccc1O)c1cccc(S(=O)(=O)N2CCc3ccccc32)c1,/,3,3,7,2,-14,3,/,
CCOC(=O)N1CCC(NC(=O)c2ccc(CS(=O)c3ccc(Cl)cc3)o2)CC1 (configuration not stated),i,3,-15,-2,-1,-10,0,1,
CCn1c(O)c(N=NC(=O)c2cccc(S(=O)(=O)N3CCCCC3)c2)c2ccccc21,i,-3,-17,8,-5,/,35,0,
CC(=O)Nc1ccc(NC(=O)CN2C(=O)COc3ccc(S(=O)(=O)N4CCOCC4)cc32)cc1,i,3,-9,3,5,-17,-7,6,
NC(=O)N=Nc1c(O)[nH]c2c(Br)cc(Br)cc12,i,-2,1,/,/,/,-22,/,
O=C(NNS(=O)(=O)c1ccc(F)cc1)C1CCN(Cc2cccc(F)c2)CC1,i,-8,1,-1,-6,-11,-12,14,
O=C(NCCC1=CCCCC1)C(=O)NCc1ccccc1,i,-5,-9,3,6,/,-7,/,
O=C(CSc1nc(-c2ccccc2)c(-c2ccccc2)o1)N1CCCCC1,/,/,/,-5,-4,-7,/,26,
CC(c1ccccc1)n1c(SCC(=O)Nc2ccccc2)n[nH]c1=O (configuration not stated),i,-3,-9,3,-7,-17,/,28,
O=C1NCCNC1(c1c[nH]c2ccccc12)C(F)(F)F (configuration not stated),i,0,0,3,5,-14,7,1,
CCCOC(=O)C1[C@H]2C(=O)N(CC3CCCO3)C[C@]23C=C[C@H]1O3 (some centres not stated),i,4,-2,-2,-2,-5,-12,/,
COc1ccc(/C=C/C(=O)O)cc1Cl,i,0,-3,0,2,-11,-44,16,
CC1(C(=O)NS(=O)(=O)c2ccccc2Cl)CCN1C(=O)c1cccc2ccccc12 (configuration not stated),/,/,/,3,2,-17,/,5,
CN1C(C(=O)Nc2ccc(OC(F)(F)F)cc2)=CC(c2cccs2)=NS1(=O)=O,i,/,/,-3,-1,-17,-4,18,
O=C(COC(=O)c1ccc(F)cc1)NCCCc1ccccc1,i,-5,7,0,0,-13,-12,35,
CC(C)c1nc(CNC(=O)CC2C(=O)NCCN2Cc2ccoc2)cs1 (configuration not stated),i,2,2,3,10,-21,-1,-7,
CC(=O)Nc1cccc(Oc2ncnc3scc(-c4ccccc4)c23)c1,i,-12,5,0,-2,5,-9,10,
Nc1nonc1-n1nnc(C(=O)N/N=C/c2cc(Br)cs2)c1-c1ccccc1,i,11,2,0,-4,-5,/,-94,
Cc1cc(-c2ccccc2)nc(N(C)NC(=O)C(C)(C)C)c1S(C)(=O)=O,i,14,-13,-6,-5,1,3,12,
CC/S(=N\S(=O)(=O)c1ccc(C)cc1)c1ccccc1 (configuration not stated),i,-2,3,-2,0,/,-16,16,
O=C(OCc1cn([C@@H]2CN(C(=O)C3CCCCC3)[C@@H](c3ccccc3)C[C@H]2O)nn1)c1ccccc1,/,/,/,-1,6,6,/,-7,
C/C(Nc1ccccc1)=C(/C#N)C(N)=O,i,4,-2,2,-1,-21,-4,-42,
CC(CNC(=O)c1ccc(C#N)cc1)NC(=O)c1ccc(C#N)cc1 (configuration not stated),i,-5,-8,0,4,-5,1,0,
COc1ccc(Cl)cc1NC(=O)C1Cc2ccccc2CN1S(C)(=O)=O (configuration not stated),i,-2,-2,-1,2,-18,-2,0,
CCC(C)NC(=O)CSc1nc2scc(-c3ccccc3)c2c(=O)[nH]1 (configuration not stated),i,-4,-2,4,-6,/,-1,/,
CCCCN(C(=O)CCC(=O)Nc1cc(C)on1)C(C(=O)NC1CCCC1)c1ccccc1OCC (configuration not stated),i,13,5,-5,-1,8,/,0,
CC(=O)Nc1ccc(NC(=O)C(Sc2ccccc2)c2ccccc2)cc1 (configuration not stated),i,-15,-8,-3,-4,-23,3,10,

# The list goes on, overlapping the part above by three compounds.
SMILES,Rce1 inhib,PABP polyA inh,eIF4H FP inh,MT1-MMP act inh,MT1-MMP act inh RFP,Yeast UUG start,CSC inhib,HIV Env fusion,others
CCC(C)NC(=O)CSc1nc2scc(-c3ccccc3)c2c(=O)[nH]1 (configuration not stated),i,-4,-2,4,-6,/,-1,/,
CCCCN(C(=O)CCC(=O)Nc1cc(C)on1)C(C(=O)NC1CCCC1)c1ccccc1OCC (configuration not stated),i,13,5,-5,-1,8,/,0,
CC(=O)Nc1ccc(NC(=O)C(Sc2ccccc2)c2ccccc2)cc1 (configuration not stated),i,-15,-8,-3,-4,-23,3,10,
Cc1ccc(-n2nnc(-c3cccnc3)n2)cc1,i,/,/,-3,1,-4,-6,-134,
Cn1c(=O)c2c(-c3ccccc3)n(-c3cc(C(=O)O)ccc3O)cc2n(C)c1=O,/,/,/,0,5,-15,/,-1,
CCOc1ccc(NC(=O)CSc2nnc(-c3ccncc3)n2CC2CCCO2)cc1 (configuration not stated),i,-12,-2,0,0,-3,-9,-42,
CCN(CC)CCN1C(=O)C(O)=C(C(C)=O)C1c1ccc(OC)c(OC)c1 (configuration not stated),i,-1,-4,4,5,-12,-1,/,
COc1cc2c(c(O)c1OC)-c1c(cc(OC)c(OC)c1OC)C[C@@H](C)[C@@H](C)C2,i,-3,2,1,-2,-6,7,-7,
Nc1nc(NCC2CCCO2)nc(Nc2cccc(F)c2)c1[N+](=O)[O-] (configuration not stated),i,3,-13,2,-4,/,-2,-7,
CCC1(C(=O)OC)NC(c2ccccc2OC)C2C(=O)N(C)C(=O)C21 (configuration not stated),i,-11,-1,-4,5,-9,-12,0,
COc1cccc(N2CCN(S(=O)(=O)c3ccc4c(c3)NC(=O)CS4)CC2)c1,i,-4,-10,3,-11,3,1,4,
COc1ccc(C2C(C(=O)c3sc(C)nc3C)=C(O)C(=O)N2CCN(C)C)cc1 (configuration not stated),i,-2,-12,-2,4,11,-12,/,
Cc1ccc([N+](=O)[O-])cc1NC(=O)Nc1cccc(F)c1,i,0,0,-2,-27,-17,/,42,
Cc1ccc(S(=O)(=O)NN=CC=CC=NNS(=O)(=O)c2ccc(C)cc2)cc1,/,/,/,4,10,-16,/,-20,
CCOC(=O)c1ccc(NC(=O)C(=O)NCc2ccncc2)cc1,i,-13,2,1,-3,5,-5,/,
COc1cc(C#Cc2c(-c3cncn3C)n(C)c3ccc(-c4cc(OC)c(OC)c(OC)c4)cc23)cc(OC)c1,/,/,/,-12,-13,-14,62,34,
COc1ccc(CNC(=O)CCSCc2ccc(C)cc2)cc1,i,0,6,2,0,/,-10,-2,
Cc1ccc(S(=O)(=O)N2CCCC2CNC(=O)c2ccc3c(c2)OCO3)cc1 (configuration not stated),i,/,/,5,-2,8,/,11,
